Screening results: PubChem BioAssay, several laboratories
Beta2AR agonist = agonists of human beta-2 adrenergic receptor inducing internalization. response, % (concentration not given with the values). 340,000 compounds, 0.43% hits. AID 504454. Am2.2-beta2AR cells, FAP receptor internalization, flow cytometry; reference of the scale not given here;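 active = response above a set limit, near 3 SD of response in nonfluorescent compounds, cut at about 42% in these data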;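 also: stock transfer was 100 nL into about 11 µL; a reference agonist was the positive control; negative values mostly stem from fluorescent compounds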
FGF22 binding = binders of recombinant human FGF22 by thermal shift | AID 651658 | SYPRO orange fluorescence; percent of sucrose octasulfate shift, DMSO zero | calls only at 9.99 µM | 340,000 compounds, 1.5% hits | Q9HCT0;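 active = melting point raised past a set limit in the mean and every replicate; inconclusive = no clear call; three in four hits are not shown here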
ALR H2O2 inh = inhibitors of human sulfhydryl oxidase ALR | P55789 | purified ALR, DTT oxidation, H2O2 HRP-luminol luminescence | inhibition, % (no concentration beside the values) | 290,000 compounds, 3.8% hits | AID 485317;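 active = mean and each replicate at 75% or more; inconclusive = only one of the two met; inactive = neither met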;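 also: stock transfer was 7.5 nL into about 7.5 µL; 0% = neutral wells and 100% = wells with inactivated enzyme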
Target sequence (P55789 whole entry, looked up): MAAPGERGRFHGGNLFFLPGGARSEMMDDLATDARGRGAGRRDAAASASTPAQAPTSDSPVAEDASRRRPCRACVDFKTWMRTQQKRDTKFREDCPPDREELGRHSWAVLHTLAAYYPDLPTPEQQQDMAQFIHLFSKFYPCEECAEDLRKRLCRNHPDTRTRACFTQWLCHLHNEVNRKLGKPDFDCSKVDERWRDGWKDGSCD
E coli growth = E. coli growth inhibition | 330,000 compounds, 0.21% hits | OD600 absorbance (concentration not given with the values) | Escherichia coli growth, OD600, 23 h; active compounds read low;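 active = OD600 absorbance below the run mean of sample wells minus 3.6 SD, in any replicate, cut at about 0.56 in these data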;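 also: stock transfer was 300 nL into about 60 µL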
UCH37 inh = blocks the human deubiquitinase UCH37 | inhibition, % (concentration not given with the values) | Q9Y5K5 | 330,000 compounds, 0.33% hits | purified proteasome/UCH37, Ub-AMC cleavage fluorescence;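 active = mean of two replicates above 20%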;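 also: 0% = compound-free wells with enzyme and 100% = wells lacking proteasome; stock transfer was 100 nL into about 20 µL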
Target sequence (Q9Y5K5 whole entry, looked up): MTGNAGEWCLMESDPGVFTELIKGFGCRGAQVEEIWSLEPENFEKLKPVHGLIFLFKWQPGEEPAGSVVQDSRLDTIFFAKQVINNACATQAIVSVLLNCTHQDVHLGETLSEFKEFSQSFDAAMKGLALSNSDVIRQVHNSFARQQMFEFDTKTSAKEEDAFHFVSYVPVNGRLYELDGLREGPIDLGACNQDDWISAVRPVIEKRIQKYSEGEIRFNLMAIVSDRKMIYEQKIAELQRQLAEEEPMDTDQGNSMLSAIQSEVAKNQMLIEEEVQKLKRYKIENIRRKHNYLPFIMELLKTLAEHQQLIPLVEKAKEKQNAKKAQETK
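Material: human UCH37 enzyme supplied as purified proteasome complex / Amount: 0.15 nM proteasome as dispensed / Buffer or medium: pH 7.4 Tris-HCl (50 mM) with ovalbumin, ATP-MgCl2, DTT / Times: preincubation 30 min, reaction 25 min, room temperature / Technique: AMC fluorescence from Ub-AMC cleavage, excitation 355 nm, emission 460 nm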
HNF4A DNA FP = change in binding of human HNF4 alpha to DNA; 360,000 compounds, 0.3% hits; P41235; HNF4a-FITC DNA binding, fluorescence polarization, 1 h; activity change, % at 10 µM; in the data active = activity change above about 30%, passing the limit was not always enough;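 also: controls were the assay level and a saturating level of protein; the project sought stronger binding though the title names inhibitors; some compounds called inactive have numbers as strong as hits; positive values seem to mean higher polarization but the record does not say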
Target sequence (P41235 whole entry, looked up): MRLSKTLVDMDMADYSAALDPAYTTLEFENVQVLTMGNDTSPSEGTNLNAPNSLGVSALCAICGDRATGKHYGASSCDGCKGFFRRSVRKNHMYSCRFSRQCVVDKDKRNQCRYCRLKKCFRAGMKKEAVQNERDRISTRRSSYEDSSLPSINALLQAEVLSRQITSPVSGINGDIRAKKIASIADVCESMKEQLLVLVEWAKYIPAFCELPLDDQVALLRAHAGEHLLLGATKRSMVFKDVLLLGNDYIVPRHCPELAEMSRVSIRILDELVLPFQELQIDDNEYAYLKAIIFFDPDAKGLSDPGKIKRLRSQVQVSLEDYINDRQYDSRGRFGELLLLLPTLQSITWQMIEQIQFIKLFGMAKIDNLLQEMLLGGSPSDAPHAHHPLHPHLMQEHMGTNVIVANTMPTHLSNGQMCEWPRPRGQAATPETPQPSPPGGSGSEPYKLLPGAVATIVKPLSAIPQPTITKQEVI
rRNA inh HTS = inhibits bacterial ribosomal RNA function over humanized ribosomes; E. coli WT GFP vs humanized-ribosome RFP mutants, fluorescence, 24 h; active compounds read low; DMSO median 0, no signal -100; GFP signal change (wild-type ribosome), % (no concentration beside the values); 350,000 compounds, 1.6% hits;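 active = significant combined selectivity score with lowered wild-type GFP, culture density cut under 30%, mutant RFP and density less affected; inactive = any of these conditions unmet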; also: one replicate is shown; some compounds called inactive have numbers as strong as hits
rRNA inh HTS OD600 = further read-out of rRNA inh HTS, marked with its call; OD600 change, %; measured here: OD600 growth;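 optical density of the mix in the first replicate; 0 = DMSO median and -100 = no signal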
rRNA inh HTS RFP = recorded beside rRNA inh HTS, whose call it bears; RFP signal change, %; measured here: RFP humanized mutant strains;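 first replicate; 0 = DMSO median and -100 = no signal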
The depositor's hits bear a star; i = inactive; ? = inconclusive; · = no result given; & = joins results of further samples. Only part of the results is shown; rates above refer to the full screens.

SMILES	Beta2AR agonist	FGF22 binding	ALR H2O2 inh	E coli growth	UCH37 inh	HNF4A DNA FP	rRNA inh HTS	rRNA inh HTS OD600	rRNA inh HTS RFP
COc1ccc(NC(C)=O)cc1S(=O)(=O)NC1CCSc2ccccc21 (stereo unspecified)	1	i	-7	0.71	2.9	-2.2	-12	-13	1.1
CCOC(=O)c1csc(N/N=C2\CCCc3ccccc32)n1	2	i	-149	·	·	0.7	-53	-78	-15
CCCOc1ccc(C(=O)CCNC(Cc2c[nH]c3ccccc23)C(=O)O)cc1 (stereo unspecified)	-5	·	4	0.67	4.4	-2.1	·	·	·
COc1ccc(C(NC(=O)/C=C/c2ccco2)c2ccc(OC)cc2)cc1	-19	i	54	0.7	0.1	-0.2	4	7	-0.5
O=C(O)CC/C(=N\NC(=O)CNC(=O)c1ccc(F)cc1)c1ccccc1	-5	i	·	·	·	4.0	-19	-27	-2.7
CN1C(C(=O)NCc2ccco2)=CC(c2ccc(F)cc2)=NS1(=O)=O	-3	i	-9	0.69	5.1	6.0	0	-1	-4.2
O=C(c1ccc2nc(N3CCOCC3)sc2c1)N1CCCC1	-4	i	·	0.73	4.0	-4.4	5	4	-4.8
CCOc1ccc(S(=O)(=O)N2CCN=C2Cc2ccccc2)cc1C	-17	i	8	0.68	2.8	-0.9	-5	-1	2.7
O=C(NCc1ccc(F)cc1)C(Cc1ccccc1)NS(=O)(=O)c1cccs1 (stereo unspecified)	-4	i	·	0.64	0.7	0.3	-4	-7	-1.4
CC(C)Nc1nc(NCCO)nc2ccccc12	·	i	·	·	·	1.2	20	14	2.6
COC(=O)CSc1nnc(-c2ccccc2O)n1-c1ccc(C)cc1	4	·	0	0.67	0.9	3.2	·	·	·
CC(=O)N(c1ccccc1)c1nnc(-c2cnc(C)cn2)s1	-4	i	-15	0.72	1.7	-1.7	6	7	1.3
O=C1CC(N2CCC(Cc3ccccc3)CC2)C(=O)N1CCc1ccccc1 (stereo unspecified)	14	i	-12	0.67	1.7	-0.3	-34	-43	-1.4
C=CCn1c(SCC(=O)NC2CCS(=O)(=O)C2)nnc1-c1ccncc1 (stereo unspecified)	0	i	-4	0.66	-0.8	2.7	12	13	-0.3
O=CNc1ccc(OC(=O)c2cncc(Br)c2)cc1	11	i	13	0.63	6.2	2.4	4	8	2.1
Cc1c(CCC(=O)O)c(=O)n2c([nH]c3ccccc32)c1C#N	-10	·	74	0.72	i	-2.0	·	·	·
Cc1ccc(OCC(=O)N2N=C(c3ccncc3)CC2(O)C(F)(F)F)cc1C (stereo unspecified)	2	i	-6	0.66	-1.6	0.9	6	2	-1.5
Nc1c(Cl)ncnc1NCCc1ccc(O)cc1	1	i	90*	0.71	4.6	-0.7	4	-18	-4.3
C#CCOCCOCCOCCNc1nc(N2CCN(C(=O)[C@H](CCC(=O)O)n3cc([C@@H](N)CCCCN)nn3)CC2)nc(N2CCN(C(=O)[C@H](CCC(=O)O)n3cc([C@@H](N)CCCCN)nn3)CC2)n1	-4	i	·	0.68	-0.8	-0.7	26	21	1.3
O=C(c1nn2c(C(F)(F)F)cc(-c3cccs3)nc2c1Br)N1CCCc2ccccc21	-13	·	-19	0.75	3.8	1.3	·	·	·
O=C(Cc1ccc(-n2c(=O)c3ccccc3n(Cc3ccccc3F)c2=O)cc1)NCC1CCCO1 (stereo unspecified)	4	i	-2	0.7	2.4	0.0	16	9	1.2
CN(C)S(=O)(=O)c1ccc(Cl)c(NC(=O)COC(=O)CNC(=O)c2ccco2)c1	5	i	·	0.64	3.1	1.1	4	7	0.3
Cc1ccc(OCC(=O)c2cc(C)n(Cc3cccs3)c2C)c([N+](=O)[O-])n1	-5	i	·	0.71	-1.3	1.7	4	-9	21
CCCC(=O)N1CCCC1(C)C(=O)Nc1ccc2nc(C)ccc2c1 (stereo unspecified)	·	i	·	·	·	2.5	10	14	-1.3
COc1ccc(C(=O)CC(=O)C(=O)Nc2ccccc2C(F)(F)F)cc1	8	i	-2	0.6	3.2	2.0	-29	-54	-11

Four of the compounds above, with bars between the fields.
Structure | Beta2AR agonist | FGF22 binding | ALR H2O2 inh | E coli growth | UCH37 inh | HNF4A DNA FP | rRNA inh HTS | rRNA inh HTS OD600 | rRNA inh HTS RFP
CN1C(C(=O)NCc2ccco2)=CC(c2ccc(F)cc2)=NS1(=O)=O | -3 | i | -9 | 0.69 | 5.1 | 6.0 | 0 | -1 | -4.2
O=C(c1ccc2nc(N3CCOCC3)sc2c1)N1CCCC1 | -4 | i | · | 0.73 | 4.0 | -4.4 | 5 | 4 | -4.8
CCOc1ccc(S(=O)(=O)N2CCN=C2Cc2ccccc2)cc1C | -17 | i | 8 | 0.68 | 2.8 | -0.9 | -5 | -1 | 2.7
O=C(NCc1ccc(F)cc1)C(Cc1ccccc1)NS(=O)(=O)c1cccs1 (stereo unspecified) | -4 | i | · | 0.64 | 0.7 | 0.3 | -4 | -7 | -1.4

Further compounds.
SMILES	Beta2AR agonist	FGF22 binding	ALR H2O2 inh	E coli growth	UCH37 inh	HNF4A DNA FP	rRNA inh HTS	rRNA inh HTS OD600	rRNA inh HTS RFP
CCC(NC(=O)c1ccccc1Br)c1ccccc1 (stereo unspecified)	4	i	-3	0.64	3.8	1.3	-4	0	-11
CN(C)S(=O)(=O)N1CCC(Oc2ccc(C(=O)NCc3cnn(C)c3)cc2)CC1	7	i	-1	0.65	-2.1	0.6	-2	-4	2.8
CCN(CC)CCCN=C1N[C@@H](c2cccc(F)c2)C(C(=O)OC)=C(C)N1Cc1ccccc1	66*	i	1	·	1.5	-4.5	12	2	0.2
CC(C)(C)Nc1nc(Cl)nc(NCc2ccccc2)n1	-4	i	-9	0.67	1.7	0.1	-45	-46	-9.1
Cc1ccc2nc(SCC(=O)NNC(=O)c3ccccc3)[nH]c2c1	3	·	·	0.65	-1.4	3.7	·	·	·
CC1=C(C#N)C(Nc2ccc(C)cn2)(C(F)(F)F)C(=O)N1 (stereo unspecified)	5	·	1	0.75	-0.5	1.4	·	·	·
CC(=O)CCc1oc2ccc(C)cc2c1-c1ccc(C)o1	-5	i	·	0.69	0.3	2.3	-2	2	-0.5
CCOC(=O)c1ccc(NC(=O)CSc2nncn2-c2cccnc2)cc1	-23	i	-5	0.65	-0.8	4.1	7	13	1.3
COc1cscc1C(N)=O	4	i	-5	0.69	3.0	2.1	17	11	3.8
Cc1nc(C)n(C(=O)N(c2ccccc2)c2ccccc2)n1	-13	·	0	0.71	0.1	2.0	·	·	·
O=C(Nc1ccc(N2CCN(C(=O)c3ccccc3)CC2)cc1)c1ccc([N+](=O)[O-])o1	9	i	·	0.63	6.9	-7.6	9	9	-5.3
COc1ccc(C2NC(=S)NC(O)(C(F)(F)F)C2C(=O)c2cccs2)cc1 (stereo unspecified)	-3	·	-5	0.65	0.8	-4.3	·	·	·
O=C(Nc1ccc(-c2ccc3nncn3n2)cc1)C1CCCC1	-8	i	-6	0.67	-0.1	-1.2	-9	-8	4.5
CCCCN(CC)S(=O)(=O)c1ccccc1	2	·	-3	0.69	-0.1	0.5	·	·	·
CCn1nc(C(=O)Nc2cccc3ccccc23)c(Cl)c1Cl	-5	·	-36	0.73	3.2	2.8	·	·	·
CCOc1ccccc1NC(=O)c1ccoc1C	-8	·	-1	0.76	0.9	-0.9	·	·	·
O=C(CN1CCCCCC1)Nc1ccc(Br)cc1[N+](=O)[O-]	-1	i	-2	0.62	5.0	1.1	7	11	-2.1
CC(C)c1ccc(NC(=O)/C(C#N)=C/c2ccncc2)cc1	20	i	36	0.71	2.5	-2.7	-10	-11	4.5
Cc1ccc(Nc2nc(-c3c(C)nc4ncccn34)cs2)cc1	27	·	?	0.64	2.5	3.4	·	·	·
CCOC(=O)CSc1nc2c(sc(=S)n2Cc2ccco2)c(=O)n1-c1ccccc1	9	·	-14	0.8	3.6	1.8	·	·	·
CCOc1ccc(NC(=O)c2ccc(Cl)c(NC(=O)c3ccco3)c2)cc1	-4	i	-14	0.69	2.7	1.0	12	6	-0.1
O=C(COC(=O)c1cccc(Cl)c1Cl)NC1CCCC1	-10	i	-5	0.68	0.8	1.5	-3	6	0.4
CCn1c2ccccc2c2cc(NC(=O)C/C(C)=N/NC(=O)c3ccccc3N)ccc21	18	·	-1	·	·	2.1	·	·	·
O=C(NCc1ccco1)C(=O)NCc1ccccc1Cl	2	·	-7	0.66	4.2	5.5	·	·	·
COC(=O)C[C@H]1C[C@H]2c3cc(NC(=O)Cc4ccncc4)ccc3O[C@H]2[C@@H](CO)O1	·	i	·	·	·	-0.1	8&3	18&-2	-1.4&0.6

Next part.
SMILES	Beta2AR agonist	FGF22 binding	ALR H2O2 inh	E coli growth	UCH37 inh	HNF4A DNA FP	rRNA inh HTS	rRNA inh HTS OD600	rRNA inh HTS RFP
Cc1cccc(C(=O)OCC(=O)Nc2ccc3c(c2)OCCO3)c1O	0	i	·	·	·	1.0	5	14	-2.4
O=C(/C=C/Nc1cccc(C(F)(F)F)c1)c1ccco1	-1	i	0	0.66	-6.8	1.7	5	-5	-0.2
CCOC(=O)c1[nH]c2ccccc2c1NC(=S)Nc1cccc(C)c1C	7	i	·	0.69	4.9	-0.4	-4	-1	-0.7
O=C(CSc1ccc(F)cc1)N1CCOCC1	7	i	-2	0.68	2.5	3.5	-6	5	-2.1
Cc1ccc(C(O)CCc2ccc(N)cc2)cc1 (stereo unspecified)	10	i	·	0.63	1.6	5.0	6	0	-3.0
N/C(=N/O)c1nc(N2CCCC2)nc(N(c2ccccc2)c2ccccc2)n1	0	·	9	·	·	3.4	·	·	·
CCCCN(C)CCNC(=O)CN1C(=O)CSc2ccc(S(=O)(=O)N3CCCC3)cc21	10	i	5	0.7	1.7	3.5	10	12	-2.0
CCC1CCCCN1C(=O)c1ccc(OC2CCN(Cc3ccccn3)CC2)cc1 (stereo unspecified)	5	i	0	0.72	3.1	-3.9	7	3	1.9
CCOc1ccc(-n2c([S-])c(C(=O)Nc3ccc(S(=O)(=O)N4CCOCC4)cc3)[n+]3cc(C(N)=O)ccc23)cc1	11	i	·	0.7	-3.7	3.4	8	7	15
COc1ccc(NC(=S)Nc2cccnc2)c(OC)c1	0	i	·	0.69	4.2	-4.9	15	7	1.6
COc1ccc(CNC(=O)C2CCN(c3nn4c(=O)cc(C)nc4s3)CC2)cc1	-3	i	·	0.72	0.5	3.1	3	10	3.4
O=C(COC(=O)Cc1c[nH]c2ccccc12)Nc1cc(S(=O)(=O)N2CCOCC2)ccc1Cl	5	i	-1	·	·	-2.8	-15	-3	4.6
CC(=O)c1ccc(NC2CC(O)C(O)CO2)cc1 (stereo unspecified)	1	·	2	0.68	2.4	3.7	·	·	·
O=C(Cn1ncn2c(cc3sccc32)c1=O)NC1CCCC1	-20	i	3	0.73	-0.5	-0.8	13	23	-0.9
COC(=O)c1sc(NC(=O)COc2ccccc2OC)nc1C	-4	·	-9	0.59	1.2	3.3	·	·	·
Cc1ccc(-c2noc(CSc3nnc(-c4ccccc4)n3C)n2)cc1	0	·	-6	0.63	1.7	-5.1	·	·	·
CC(C)(C)OC(=O)N1CCN(C(=O)c2[nH]cnc2C(=O)Nc2cccc(Cl)c2)CC1	-10	i	-6	0.8	-2.2	-1.1	10	4	1.7
CCN(CC)C(=O)CSc1nnc(COc2cccc(C)c2)n1C	·	·	-15	0.69	2.6	·	·	·	·
CSc1ccccc1NC(=O)COC(=O)CCC(=O)c1ccc(F)cc1	5	i	-4	0.63	2.8	0.7	-6	1	-0.8
O=C(O)/C=C/c1ccc(S(=O)(=O)N(CCO)CCO)cc1	5	i	-2	0.71	1.1	3.6	24	18	4.6
COc1ccc(N(C(C)C(=O)Nc2ccc(S(=O)(=O)N3CCCCC3)cc2)S(C)(=O)=O)cc1 (stereo unspecified)	-1	i	-19	0.68	5.9	-0.5	-7	-8	7.4
